hNpr1 antagonist = antagonists of human natriuretic peptide receptor Npr1. P16066. HEK293 hNpr1 GloSensor cGMP, ANP-stimulated luminescence. Potency, µM (doses to about 46.3 µM), for the others: at the top dose activity change, negative = inhibition, usual class: inhibitors. 76,000 compounds, 1.6% hits; active = well fitted inhibition curve with a large enough effect; inconclusive = small, poorly fitted or top-dose-only effect; inactive = no such curve, though single readings can be large or run the other way;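 further: nearly all actives have a fitted effect of over 60% in size; nearly all hits also lower the signal before the agonist is added; a reference antagonist and vehicle were the controls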
Target sequence (P16066 whole entry, looked up): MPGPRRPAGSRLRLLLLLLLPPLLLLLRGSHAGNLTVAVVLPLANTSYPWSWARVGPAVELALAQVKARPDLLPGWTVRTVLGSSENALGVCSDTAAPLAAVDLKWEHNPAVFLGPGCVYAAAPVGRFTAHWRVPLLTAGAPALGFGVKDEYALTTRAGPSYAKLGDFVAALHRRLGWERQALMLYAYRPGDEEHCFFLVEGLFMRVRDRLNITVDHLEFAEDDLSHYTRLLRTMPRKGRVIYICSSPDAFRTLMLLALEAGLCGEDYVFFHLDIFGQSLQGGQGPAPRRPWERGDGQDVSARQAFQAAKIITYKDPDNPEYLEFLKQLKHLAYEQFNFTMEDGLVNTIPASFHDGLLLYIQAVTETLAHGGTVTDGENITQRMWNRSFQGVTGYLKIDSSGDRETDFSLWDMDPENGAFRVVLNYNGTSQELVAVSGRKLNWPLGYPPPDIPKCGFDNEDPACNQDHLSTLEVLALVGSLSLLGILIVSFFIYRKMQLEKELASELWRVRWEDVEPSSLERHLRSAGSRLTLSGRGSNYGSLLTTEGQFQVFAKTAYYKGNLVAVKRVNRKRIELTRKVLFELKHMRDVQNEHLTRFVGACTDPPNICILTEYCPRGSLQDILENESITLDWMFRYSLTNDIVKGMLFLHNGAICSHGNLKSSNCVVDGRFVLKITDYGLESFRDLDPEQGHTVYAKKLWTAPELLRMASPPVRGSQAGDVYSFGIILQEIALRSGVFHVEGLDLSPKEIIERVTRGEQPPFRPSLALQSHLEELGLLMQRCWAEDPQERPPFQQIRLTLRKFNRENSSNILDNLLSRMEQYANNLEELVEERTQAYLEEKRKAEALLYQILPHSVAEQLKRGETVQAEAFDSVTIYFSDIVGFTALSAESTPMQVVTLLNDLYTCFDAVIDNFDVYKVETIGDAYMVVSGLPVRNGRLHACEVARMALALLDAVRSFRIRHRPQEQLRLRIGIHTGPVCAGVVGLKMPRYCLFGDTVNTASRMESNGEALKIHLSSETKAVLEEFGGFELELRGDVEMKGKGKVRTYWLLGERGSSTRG
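HEK293 cells stably expressing human Npr1 and cGMP GloSensor pGS-40F, loaded 2 h with 2% GloSensor reagent, given compound 30 min at room temperature. Luminescence read before and 20 min after 0.1 nM hNppA.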
Numbers without * were called inactive; u = inconclusive; [ ] = dose if it differs, or a comment. On the % scale 0 is the no-effect control and ±100 the full control effect; potency means the concentration at half of the fitted maximal effect. These rows are one share of the data; the hit share may differ from the screen's.

compound	hNpr1 antagonist
CN(C)C[C@@H]1CN(c2ccncn2)C[C@H]1NS(=O)(=O)Cc1cccc(F)c1	8%
O=C(CCC1CCN(Cc2cccc3c2OCO3)CC1)NCc1cccc(C(F)(F)F)c1	-5%
O=C(Cn1nc2c(cc1=O)CCCCC2)NC1CCN(C(=O)c2cc3ccccc3[nH]2)CC1	-5%
COc1cccc(-c2ccccc2NC(=O)C2CCN(c3nccnc3C)CC2)c1	u
Cc1cn2cc(C(=O)N(C)CCC(O)c3ccccc3)ccc2n1 (configuration not stated)	0%
CN(C)c1ccc(C(=O)N2CC[C@@H](CC(=O)O)[C@@H](CCN3CCN(c4ccc(F)cc4)CC3)C2)cc1	0%
CN(Cc1ccc2nsnc2c1)C(=O)c1ccc(N2CCCC2=O)cc1	-2%
O=C1CO[C@H]2CN(Cc3ccc4c(c3)OCO4)C[C@H]2N1Cc1ccc(F)cc1	-11%[70.6 µM]
CCS(=O)(=O)NCc1nc(-c2ccc(C)cc2)c(-c2ccccn2)[nH]1	-15%
Cc1ccc(CNC(=O)C2(C)CCCCC(=O)N2)cc1 (configuration not stated)	-7%
COc1cccc(NC(=O)c2cnc3c(c2)N(C(=O)Cc2cn(C)c4ccccc24)CCC3)c1	-19%
CCc1cccc(NC(=O)C2CCN(C(=O)c3ncn4c3COC(c3ccccc3)C4)CC2)c1 (configuration not stated)	u
CCCNC(=O)CCc1ccc2c(c1)CN(C(=O)C1CC1)CCO2	9%
O=C(N1CCCC1c1nc(CCOc2ccc(F)cc2)no1)C1(c2ccccc2)CC1 (configuration not stated)	-25%
Cc1cc(C)c(CNC(=O)c2cc(-c3cccnc3)cc3c2OCCN3C)c(=O)[nH]1	-1%[70.6 µM]
O=c1cc(-c2ccncc2)oc2c(-c3ccc(CO)cc3)nccc12	2%[70.6 µM]
COCCN1C(=O)[C@@H]2C[C@@H](CN2C(=O)Cc2ccccc2)Oc2ccccc21	0%[70.6 µM]
Cc1ccc(-c2nnc(C3CN(C(=O)c4sccc4C)CC34CCOCC4)o2)cc1 (configuration not stated)	-4%
COc1cc(CN2CCC3(CC2)CC(O)CCO3)cc(OC)c1 (configuration not stated)	9%
O=C(CCCn1cncn1)NC1CC(c2cc(=O)[nH]c(C3CC3)n2)C1 (configuration not stated)	4%
CN(C)c1cc(N2CCCC(NC(=O)CCc3ccccc3)C2)ncn1 (configuration not stated)	-1%
CC(=O)Nc1ccc(CN[C@@H]2CO[C@H](CNC(=O)c3cccs3)[C@H]2O)cc1	7%[70.6 µM]
O=C(c1ccc2n[nH]nc2c1)N1C[C@H](CO)C[C@H](CN2CCOCC2)C1	-24%
O=C(CC(F)(F)F)N1CCC(N2C(=O)C3(CCCC3)C2c2ccccc2)CC1 (configuration not stated)	-2%
O=C(NCC1CCN(c2cc(-c3ccccc3)[nH]n2)CC1)c1ccc2nc[nH]c2c1	-2%
Cc1ccc(Cc2ccccc2C(=O)N2C[C@@H](CN(C)CCO)[C@@H](CO)C2)cc1	0%
COc1ccc(OC)c(NC(=O)Cn2c(-c3cnccn3)nc(C)c(CCO)c2=O)c1	1%
O=C(CN1CC2CC(C1)[C@H]1CCCC(=O)N1C2)N1CCN(c2ccccc2F)CC1 (some centres not stated)	6%
O=C(c1ccccc1OCC1CCCN(C2CCC2)C1)N1CCCCC1 (configuration not stated)	-7%
COc1ccc(C(=O)N[C@@H]2CCC[C@@H]2C(=O)NCc2ccc(OC(F)(F)F)cc2)cc1	-1%
COc1ccc(-n2c(=O)c3c(n2Cc2ccccc2)CN(C(=O)COc2ccccc2)CC3)cc1	-3%
Cc1nc(CNC(=O)C2CCCN(C3CCCC3)C2)cc(=O)[nH]1 (configuration not stated)	2%
CN1c2cc(C(=O)N3CCN(c4ccccn4)CC3)ccc2C(=O)N2CCCCC21 (configuration not stated)	0%
COCc1nnc([C@@H]2CC(F)(F)CN2C(=O)Cc2ccccc2C)o1	-14%
CCNC(=O)Nc1ccc(OCC(=O)NC(C)c2ccc(OC)c(OC)c2)nc1 (configuration not stated)	-1%
CC(C)C[C@H](CO)NC(=O)C[C@@H]1c2nc(NC(=O)c3ccco3)sc2C[C@@H]2[C@](C)(CO)[C@H](O)CC[C@]21C	6%
O=C(C[C@@H]1CCNC[C@@H]1Cc1cc(CSc2ccccc2)on1)NCc1ccc2c(c1)OCO2	-24%
Fc1ccccc1CN1CCOC[C@H](Oc2cccnc2)C1	0%[70.6 µM]
O=C(Cc1cccs1)N1CCC(c2noc(-c3ccncc3)n2)C1 (configuration not stated)	-1%
Cc1cn2nc(C(=O)Nc3ccc(N(C)C)cc3)cc2c(N(C)Cc2ccccc2)n1	-10%
Cc1ccc(C(=O)N2CC3(Cc4ccccc4N([S+](C)(=O)[O-])C3)C2)cc1	3%
Cc1ccc(CN2CCC3(CC2)CN(c2ccncn2)CC3CO)o1 (configuration not stated)	1%
COCCOCC(=O)N1CC(c2nnc(-c3ccncc3)o2)C2(CCOCC2)C1 (configuration not stated)	-1%
Cc1nn2c(c1-c1ccccc1OCc1ccccc1)N(Cc1ccccc1O)CCC2	u
CCN1C(=O)CCN(C(=O)c2nn(C)c3ccccc23)CC12CCOCC2	4%
CC1=C[C@@H](CC#N)[C@H](C(C)C)C[C@H]1CC(=O)NCc1ccccc1	1%[70.6 µM]
CC(C)(C)c1ccc(NC(=O)O[C@@H]2CO[C@H]3[C@@H]2OC[C@@H]3Nc2nccc(-c3cccs3)n2)cc1	-13%
CC(C)(C)c1coc([C@@H]2COCCN2Cc2ccc(Cl)cc2)n1	-1%[70.6 µM]
COc1ccccc1C(O)c1nc(Nc2cccc(F)c2)n[nH]1 (configuration not stated)	-5%[70.6 µM]
CCN(CC)C(=O)[C@@H]1C[C@H](n2cc(-c3cccc(OC)c3)nn2)CN1	9%
CCOCCn1nc(C)cc1C(=O)N1CCC2(CC(=O)NC2=O)C1 (configuration not stated)	1%
COc1ccc(C(=O)N[C@@H]2CCC[C@@H]2C(=O)NCCCN2CCOCC2)cn1	-1%
COCCN1Cc2ccc(Nc3ccc(OC)cc3)nc2C(C)(C(=O)NC(C)C)C1 (configuration not stated)	6%[70.6 µM]
O=C(c1coc(COc2cccc(F)c2)n1)N1CCCCC1c1nccs1 (configuration not stated)	-11%
COCC(=O)N[C@@H]1C=C[C@@H](c2c(C)nn(-c3ccc(C(C)(C)C)cc3)c2C)C1	-27%[70.6 µM]
O=C(NC1CCCN(c2cc(-c3ccc(F)cc3)[nH]n2)C1)c1ccncc1 (configuration not stated)	-11%
COc1cccc(CNC(=O)[C@@H]2C[C@@H](O)CN2C2CCN(C(=O)c3nccc4ccccc34)CC2)c1	-3%
Cc1ccccc1CC(=O)N1CCN(c2cc(-c3ccc(Cl)cc3)[nH]n2)CC1	u
CCC(=O)Nc1cc(C(=O)NCC(C)C)c2ccc(C)nc2c1	3%
Cc1ccccc1C(=O)N1CCC2(CC1)OCC(C(=O)N1CCOCC1)N2C(=O)c1cccc(F)c1 (configuration not stated)	-2%

Among those listed so far, these have an aryl methoxy group:
compound	hNpr1 antagonist
COc1cccc(-c2ccccc2NC(=O)C2CCN(c3nccnc3C)CC2)c1	u
COc1cccc(NC(=O)c2cnc3c(c2)N(C(=O)Cc2cn(C)c4ccccc24)CCC3)c1	-19%
COc1cc(CN2CCC3(CC2)CC(O)CCO3)cc(OC)c1 (configuration not stated)	9%
COc1ccc(OC)c(NC(=O)Cn2c(-c3cnccn3)nc(C)c(CCO)c2=O)c1	1%
COc1ccc(C(=O)N[C@@H]2CCC[C@@H]2C(=O)NCc2ccc(OC(F)(F)F)cc2)cc1	-1%
COc1ccc(-n2c(=O)c3c(n2Cc2ccccc2)CN(C(=O)COc2ccccc2)CC3)cc1	-3%
CCNC(=O)Nc1ccc(OCC(=O)NC(C)c2ccc(OC)c(OC)c2)nc1 (configuration not stated)	-1%
COc1ccccc1C(O)c1nc(Nc2cccc(F)c2)n[nH]1 (configuration not stated)	-5%[70.6 µM]
CCN(CC)C(=O)[C@@H]1C[C@H](n2cc(-c3cccc(OC)c3)nn2)CN1	9%
COc1ccc(C(=O)N[C@@H]2CCC[C@@H]2C(=O)NCCCN2CCOCC2)cn1	-1%
COCCN1Cc2ccc(Nc3ccc(OC)cc3)nc2C(C)(C(=O)NC(C)C)C1 (configuration not stated)	6%[70.6 µM]
COc1cccc(CNC(=O)[C@@H]2C[C@@H](O)CN2C2CCN(C(=O)c3nccc4ccccc34)CC2)c1	-3%

(listing goes on)
compound	hNpr1 antagonist
O=C(CCC1CCN(C(=O)c2ccccc2)CC1)N1CCC(Cc2ccccc2)CC1	-28%
Cc1ccccc1CN1CCn2c(nn(CC3COc4ccccc4O3)c2=O)C1=O (configuration not stated)	2%
O=c1ncn(CC2CC2)c2ccc(-c3ccc(F)cc3)nc12	4%[70.6 µM]
O=C(NCc1ccccc1)N1CCCCC1c1nc(C2CC2)n[nH]1 (configuration not stated)	-13%
O=C1NC(C(=O)O)Cn2cccc21 (configuration not stated)	1%
Cc1nnc(-c2cc(-c3cccc(F)c3)ccn2)n1C1CCCCC1	-7%[70.6 µM]
Cc1ccncc1C(=O)N1CC(c2nc(CCN(C)C(=O)C3CC3)no2)C1	-1%
Cc1nc(C)c(C(=O)NCC23CCC=C2N(C)C(=O)CC3)s1 (configuration not stated)	11%
CCn1nc(CC(C)C)cc1C(=O)NC1CCCN(c2ncccn2)C1 (configuration not stated)	8%
Oc1ccc(-c2nc(C3CC3)nc3c2CCN(Cc2ccccn2)CC3)cc1	-1%
Cc1cccc(NC(=O)N2C[C@@H](F)C[C@H]2C(=O)N2CCc3ccccc3C2)c1	-17%
CCc1nnc([C@@H]2CC(F)(F)CN2C(=O)CCn2cccn2)o1	5%
CC1=C[C@@H](CNCc2ccccn2)[C@H](C(C)C)C[C@H]1Cc1nnc(-c2ccccc2)o1	u
O[C@@H]1C[C@@H](c2nc(C3CC3)no2)N(Cc2ccc(OC(F)(F)F)cc2)C1	-2%[70.6 µM]
COCCN1C(=O)CS(=O)C12CCN(S(=O)(=O)c1c(C)noc1C)CC2 (configuration not stated)	0%

Further structures:
molecule | hNpr1 antagonist
O=c1c2nc(-c3ccc(Cl)cc3)ccc2ncn1Cc1ccccn1 | 0%[70.6 µM]
CC(=O)c1ccc(NC(=O)O[C@@H]2CO[C@H]3[C@@H]2OC[C@@H]3NC(=O)c2ccccc2)cc1 | -4%[70.6 µM]
Cc1onc(-c2cnn(C)c2NCc2ccc(C#N)cc2)c1C(=O)N(C)c1ccccc1 | -3%[70.6 µM]
CC(C)NC(=O)N1C[C@@H]2CCCN3CCC[C@@H]([C@H]23)[C@H]1CCCC(=O)Nc1ccccc1 | 0%
Cc1ccc(N2CC(c3noc(C4(c5ccccc5)CC4)n3)CC2=O)cc1 (configuration not stated) | -7%
NC(=O)c1cccnc1N1CCC2(CC1)CC(C(=O)O)N(C(=O)C1CC1)C2 (configuration not stated) | 1%
CCOc1cccc(CN(C)Cc2cn[nH]c2-c2ccc(F)cc2)c1O | -3%
CC(=O)N1CCN([C@H]2[C@@H]3OC[C@@H](O3)[C@@H](NC(=O)Nc3cccc(C(F)(F)F)c3)[C@@H]2O)CC1 | 1%
Cc1nn(C)c(C)c1CNC(=O)C1CCc2sc(C(=O)N3CCOCC3)cc2C1 (configuration not stated) | -4%
O=C(c1ccco1)N1CCN(C(=O)C2CN(S(=O)(=O)C3CC3)CC23CCCCC3)CC1 (configuration not stated) | -2%
Cn1c(CO[C@H]2CN(Cc3ccc(S(C)(=O)=O)cc3)C[C@H]2F)nc2ccccc21 | -27%[70.6 µM]
Cc1cccc(S(=O)(=O)N2CCC(n3cnnc3C3CC3)CC2)c1 | -6%
Cc1ccc(NC(=O)N2CCC(CCNC(=O)c3cccc(F)c3)CC2)cc1 | -4%
Cc1nn(C)c(C)c1-c1ccnc(NCC2CC(=O)N(C3CCCC3)C2)n1 (configuration not stated) | 8%
COCc1ccc2c(c1)c(OC(C)(C)C(=O)N1CC(O)C1)nn2CCC(C)C | -10%[70.6 µM]
CCC(C)NC(=O)Cc1csc2nc(C)c(-c3cc(C)n(-c4ccc(C(C)C)cc4)n3)c(=O)n12 (configuration not stated) | 5%
Cc1nc(CN2Cc3nc(-c4ccc5c(c4)OCO5)ccc3OCC2=O)cs1 | 0%[70.6 µM]
Cc1ccc(-c2nc(CNC(=O)C(C)(C)N)[nH]c2-c2ccccn2)cc1 | 3%
Cn1nccc1C(=O)N1CCc2c(n(CCOc3ccccc3)n(-c3ccccc3)c2=O)C1 | 2%
CC(C)[C@@H]1CN(S(=O)(=O)c2cccc(C#N)c2)C[C@H]1NS(C)(=O)=O | 1%
CC[C@H]1CN(C(=O)c2cccnc2)CC[C@H]1CC(=O)N(C)CCC#N | 1%[70.6 µM]
COc1ccccc1NC(=O)N1CC(C(=O)N(C)C)C2(CCOCC2)C1 (configuration not stated) | -11%
O=C(NCc1ccccc1)c1cnc2n1CCN(Cc1c[nH]c3ccccc13)CC2 | -15%[70.6 µM]
CCn1c(=O)c2ccnn2c2ccc(C(=O)NCc3ccc(N4CCOCC4)cc3)cc21 | -15%
O=c1cc(N2CCOCC2)oc2c(NCc3ccncc3)nccc12 | 4%[70.6 µM]
COc1ccc(CC(=O)N2CCC(n3cnnc3C3CC3)CC2)cc1Cl | -2%
CCn1cc(-c2ccc(C)cc2)cc1C(=O)NC(C)c1ccccn1 (configuration not stated) | -7%
CCOC(=O)C[C@@H]1C[C@@H](C(C)C)[C@H](CNS(=O)(=O)c2ccccc2)C=C1C | u
CCC(=O)N1CCC(N2C[C@H](O)C[C@H]2C(=O)NC2CCCCC2)CC1 | 1%
COc1cccc(CC(=O)N2CCCn3nc(C)c(-c4cccnc4N4CCOCC4)c32)c1 | -16%
COCCn1c(C)cnc1CCNS(=O)(=O)c1cccc(OC)c1 | -14%
